gsp antag – qHTS for Antagonists of gsp, the Etiologic Mutation Responsible for Fibrous Dysplasia/McCune-Albright Syndrome: qHTS; gsp-mutant cells, cAMP HTRF, 30 min; control for the full effect not named in the record; Potency, µM (titrated, usually from 76.9 µM), without a hit: top-dose activity change, negative = inhibition, actives largely listed as inhibitors; hit rate 0.4% among 340,000; active = falling curve of any shape with a large fitted effect; inconclusive = falling curve, mostly with a smaller effect; inactive = flat or rising curve; cell line not stated here;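 also: intracellular cAMP measured with PDE inhibitor Ro 20-1724 present during compound exposure; potency is read from the fitted curve at half-maximal effect; % is scaled to controls: 0 for no effect and ±100 for the full control effect; nearly all actives have a fitted effect of over 65% in size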
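HTRF cAMP read-out (cAMP-d2 plus anti-cAMP antibody-K in lysis buffer, 30 min RT). Before lysis, cells are exposed to compounds with […] for 30 min at 37C in DPBS containing Ca/Mg, BSA and Tween 20.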
TRPML1 blocker – qHTS for Inhibitors of the Human Mucolipin Transient Receptor Potential 1 (TRPML1); Mucolipin-1 (Homo sapiens), Q9GZU1; TRPML1-inducible cells, Ca2+ dye fluorescence, FDSS; hits give low values; inhibition of EC80 agonist-evoked calcium signal; activity change, negative = inhibition, % (concentration not given with the values); hit rate 0.02% among 390,000; in the data active means activity change below about -50%; inconclusive means about -30% to -50%; inactive means above about -30%;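 also: stimulus is agonist 54-4 at its EC80 concentration; % is scaled to controls: 0 for no effect and ±100 for the full control effect; compound concentration not given in the record; the text of the record puts the active cut at -80%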
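Calcium fluorescence in TRPML1-DL cells induced overnight with Tet: a 110 s read after compound pin addition, then a 110 s antagonist read after challenge with 54-4 at 4 uM final (EC80).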
Menin MLL FP FL – qHTS Assay for Inhibitors Targeting the Menin-MLL Interaction in MLL Related Leukemias: Competition With Fluorescein Labeled MLL-derived Peptide; Fluorescence polarization, fluorescein-MLL peptide displacement from menin; FP activity change, % at 61.4 µM; AID 1766, 2009; 290,000 tested, under 10 active; inconclusive = falling polarisation curve, or a change in total fluorescence; inactive = total fluorescence flat and polarisation flat or rising; no compound was filed as active; the % refers to the polarisation; negative = inhibition;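 also: % of control where 0% means no effect; inhibitors lower the polarisation; unlabelled MLL peptide was the positive control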
Sfp PPTase inh – qHTS Assay for Inhibitors of Bacillus subtilis Sfp phosphopantetheinyl transferase (PPTase); 4'-phosphopantetheinyl transferase ffp (Bacillus subtilis), Q9F4F7; Biochemical Sfp PPTase activity, qHTS; Potency, µM, for the others: max response, negative = inhibition, usual class: inhibitors; hit rate 3.5% among 310,000; AID 1490, 2009; active = well fitted inhibition curve with a large enough effect; inconclusive = small, poorly fitted or top-dose-only effect, or another doubt; inactive = no such curve, though single readings can be large or run the other way;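 also: the enzyme is Sfp with the accession as filed and its product quenches rhodamine fluorescence; potency is read from the fitted curve at half-maximal effect; 0% = enzyme reaction without inhibitor and -100% = no enzyme wells; top concentration of the series not given in the record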
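After 15 min at room temperature with compound, 15 nM Sfp received 5 uM rhodamine-CoA plus 12.5 uM BHQ-2-ybbR (50 mM Hepes pH 7.6, 10 mM MgCl2). Rate came from the fluorescence difference over 30 min, ex 525/em 598 nm.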
ClpP mod – qHTS Assay for Activators of ClpP | Potency, µM (top dose mostly 57.5 µM), without a hit: at the highest dose activity change, negative = active | hit rate 1.9% among 340,000 | ATP-dependent Clp protease proteolytic subunit (Bacillus subtilis (strain 168)), P80244 | purified B. subtilis ClpP, FRET peptide cleavage, 20 min | AID 651965, 2013; active = well fitted falling curve with a large enough effect; inconclusive = small, poorly fitted or top-dose-only effect; inactive = no such curve, though single readings can be large or run the other way; also: potency is read from the fitted curve at half-maximal effect; the source files actives as falling curves though it sought activators and does not explain the sign; nearly all actives have a fitted effect of over 65% in size; many hits overshoot -100%
Target sequence (P80244 whole entry, looked up): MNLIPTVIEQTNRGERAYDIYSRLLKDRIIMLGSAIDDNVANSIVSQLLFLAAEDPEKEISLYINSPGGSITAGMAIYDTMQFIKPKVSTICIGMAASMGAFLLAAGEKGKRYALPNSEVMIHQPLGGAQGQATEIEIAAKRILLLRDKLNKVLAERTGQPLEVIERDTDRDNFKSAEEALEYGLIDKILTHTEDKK
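FRET quenching reversal measured ClpP activation: 10 microg/mL B. subtilis ClpP at pH 8 with the FRET-FV decapeptide, read at 430 nm after 320 nm excitation. The 20-min minus 0-min signal was scaled between DMSO/no-enzyme wells and ADEP (5.8 microM final).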
gsp agonist – qHTS for Agonist of gsp, the Etiologic Mutation Responsible for Fibrous Dysplasia/McCune-Albright Syndrome: qHTS. gsp mutant cells, cAMP HTRF, 30 min; control for the full effect not named in the record. Potency, µM (highest dose often 76.9 µM), for the others: at the highest dose activation (cAMP increase), hits mostly activators. hit rate 0.13% among 340,000; active = well fitted activation curve with a large enough effect; inconclusive = small, poorly fitted or top-dose-only effect, or another doubt; inactive = no such curve, though single readings can be large or run the other way; cell line not stated here;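 also: phosphodiesterase inhibitor Ro 20-1724 added with compounds to block cAMP breakdown; potency is read from the fitted curve at half-maximal effect; nearly all actives have a fitted effect of over 60% in size; about a fifth of the inactives were tested at one dose only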
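Cells stably selected in G418 were plated at 2000/well, grown 16-24 hr, then given compounds in DMSO with the PDE inhibitor […] (300 uM solution added) for 30 min at 37C; cAMP was read by HTRF.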
TRPV1 potentiator – HTS Assay for Compounds that Act as Potentiators of the Vanilloid Receptor 1; AID 540277, 2011; hit rate 0.02% among 320,000; TRPV1-expressing cells, Fluo-8 calcium influx, capsaicin EC20 potentiation; host cell line not named in the record; control for the full effect not named in the record; potentiation, % at 8.33 µM; active means potentiation above 80%; inconclusive means 30% to 80%; inactive means below 30%; also: 0% is about no effect
Target sequence (Q8NER1 whole entry, looked up): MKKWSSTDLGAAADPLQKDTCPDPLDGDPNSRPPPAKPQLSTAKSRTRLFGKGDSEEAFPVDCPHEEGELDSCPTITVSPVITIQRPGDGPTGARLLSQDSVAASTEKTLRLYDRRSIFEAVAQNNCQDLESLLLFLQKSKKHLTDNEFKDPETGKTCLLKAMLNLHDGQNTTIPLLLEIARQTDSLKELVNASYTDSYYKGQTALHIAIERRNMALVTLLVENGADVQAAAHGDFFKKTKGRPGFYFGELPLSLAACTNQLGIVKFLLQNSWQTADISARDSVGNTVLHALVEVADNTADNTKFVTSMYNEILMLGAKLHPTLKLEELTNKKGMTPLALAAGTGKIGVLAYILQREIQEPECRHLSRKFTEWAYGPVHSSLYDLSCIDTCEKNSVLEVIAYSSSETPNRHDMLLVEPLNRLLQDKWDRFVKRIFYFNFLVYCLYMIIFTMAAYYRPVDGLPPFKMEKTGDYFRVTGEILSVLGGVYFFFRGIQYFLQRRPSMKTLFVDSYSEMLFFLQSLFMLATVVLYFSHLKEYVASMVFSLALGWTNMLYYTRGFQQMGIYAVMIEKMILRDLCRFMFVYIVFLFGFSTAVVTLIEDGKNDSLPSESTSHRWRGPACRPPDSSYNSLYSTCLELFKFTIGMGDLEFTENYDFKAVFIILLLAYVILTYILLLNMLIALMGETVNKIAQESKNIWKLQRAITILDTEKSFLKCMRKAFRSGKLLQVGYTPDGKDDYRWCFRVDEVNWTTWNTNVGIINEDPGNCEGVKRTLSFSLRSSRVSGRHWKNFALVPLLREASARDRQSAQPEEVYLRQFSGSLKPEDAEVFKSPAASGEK
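TRPV1-expressing cells were cultured overnight at 35.5C and loaded with Fluo-8 calcium dye for 40 to 90 min at room temperature. After a 10 s baseline, compound was added and calcium influx was read kinetically for 3 min (ex 480/em 520 nm).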
Numbers without * were called inactive; ? = inconclusive; . = not tested or not shown; & = joins results of further samples; [ ] = remark or other dose.

Screens in order – gsp antag	TRPML1 blocker	Menin MLL FP FL	Sfp PPTase inh	ClpP mod	gsp agonist	TRPV1 potentiator
1) O=C(Cn1c(=O)c2sccc2n(Cc2cccc([N+](=O)[O-])c2)c1=O)NCCc1ccccc1
    -16%	15	-0.9	-20%	0.9%	12%	6
2) CCc1nnc(NC(=O)c2cc(-c3ccccn3)nc3ccccc23)s1
    -12%	18	2.7	-4%	-1.0%	27%	5
3) Cc1cc(C)c(C#N)c(SC2CCCCC2=O)n1 (stereo not given)
    -14%	-3	2.8	-20%	-1.1%	?	-15
4) COc1ccccc1Nc1nc2ccccc2[nH]1
    -6%	8	1.0	9%	0.1%	-9%	-13
5) O=C(NC1CC1)C1CCCN1S(=O)(=O)c1ccc2ccccc2c1 (stereo not given)
    3%	1	0.4	23%	-2.1%	7%	-20
6) COc1ccc(S(=O)(=O)N2CCOC2CNC(=O)C(=O)NCc2ccco2)cc1C (stereo not given)
    2%	11	3.5	22%	.	13%[15.4 µM]	6
7) C=CCN1C(=O)NC(c2ccc(OC)cc2)(C(F)(F)F)S/C1=C(\C#N)c1nnc(N2CCOCC2)n1-c1ccccc1 (stereo not given)
    -28%	-5	3.8	7%	1.1%	-6%[15.4 µM]	11
8) CC(=O)Nc1ccc(-c2cc(C(=O)O)c3ccc(C)cc3n2)cc1
    7%	10	7.6	-23%	.	?	3
9) COCCn1c(SCC(=O)c2ccccc2)nc2c(c1=O)SC(C)C2 (stereo not given)
    -14%	1	1.0	-3%	0.7%	-24%	-3
10) COc1ccc2c(c1)c(=O)oc1cc(OCC(=O)N3CCC(C)CC3)ccc12
    ?	28	-2.3	-5%	18µM*	-20%	-4
11) CCCCN(C(=O)c1ccc(S(=O)(=O)N2CCCCC2)cc1)C1CCS(=O)(=O)C1 (stereo not given)
    5%	30	.	.	-3.5%	-20%	-27
12) O=C(COC(=O)c1cc([N+](=O)[O-])ccc1N1CCOCC1)c1ccc(F)cc1
    1%	2	.	.	-0.2%	12%	-9
13) COc1ccc(C(=O)NC(Cc2ccc(OC(=O)c3ccc(OC)cc3)cc2)C(=O)O)cc1 (stereo not given)
    -1%	-8	1.7	19%	.	-1%	2
14) CCOC(=O)CN1C(=O)C(O)(CC(=O)c2ccco2)c2ccccc21 (stereo not given)
    -7%	-5	3.3	-6%	-1.1%	-5%	-2
15) Cc1cc(Cl)ccc1NC(=S)Nc1ccccn1
    22%	19	2.3	-1%	3.2%	?	-8
16) CCN(CC)C(=O)COc1ccc2c(-c3ccc(OC)cc3)cc(=O)oc2c1
    ?	-13	-5.6	-5%	-17%	0%	-5
17) CCOC(=O)N1CCN(c2c(NCCc3ccc(OCC)c(OCC)c3)c(=O)c2=O)CC1
    12%	-2	0.1	-8%	0.0%	-57%[inhibitor]	1
18) Cc1ccc(C(=O)N2CCCC(C(=O)Nc3cccc(-c4ccc(F)cc4)c3)C2)cn1 (stereo not given)
    ?	-6	0.4	5%	.	18%	4
19) CC1(C)Cc2nc(N3CCOCC3)c(C#N)cc2CO1
    -4%	-1	4.0	12%	?	2%	-2
20) COc1cccc2cc(C(=O)Oc3ccc(NC(C)=O)cc3)c(=O)oc12
    -5%	-2	-0.9	-26%	1.0%	3%[15.4 µM]	-8
21) O=C(CN1C(=O)NC2(CCOc3ccccc32)C1=O)NCc1ccccc1 (stereo not given)
    4%	6	.	.	11µM*	21%[15.4 µM]	.
22) CC1=Nc2ccccc2/C1=C/c1nc(-c2ccc(C)s2)oc1O
    -3%	8	?	-5%	0.9%	-1%	-3
23) CCCCc1nc2cc(Cl)ccc2o1
    5%	?	-0.7	24%	-1.2%	?	3
24) CC(=O)N1CCN(C(=O)CNC(=O)c2ccc(Br)o2)CC1
    7%	-15	.	4%	-3.5%	-19%	-1
25) COc1ccc(C(=O)NCc2nnc(SCC(=O)Nc3nc4ccccc4s3)o2)cc1
    6%	11	7.4	0%	1.4%	6%	7
26) O=S(=O)(CCc1nc2ccccc2s1)c1ccc2ccccc2c1
    -15%	8	1.6	?	-1.4%	-2%	?
27) CC1CCCN(C(=O)COC(=O)Cn2cnc3ccccc32)C1 (stereo not given)
    -2%	-7	.	.	-17%	-10%[15.4 µM]	.
28) Cc1cc(C)c2cc(CN(CCCN(C)C)C(=S)NCc3ccccc3)c(=O)[nH]c2c1
    25%	-14	0.8	-6%	-0.3%	4%[15.4 µM]	1
29) Cc1ccc(C(=O)NCc2ccc3c(c2)OCO3)c(C)c1
    6%	7	5.4	4%	-2.4%	-1%[15.4 µM]	?
30) O=C(Nc1cccc(F)c1)NC1CCCCC1
    2%	-13	3.5	-9%	0.4%	-18%	-4
31) Cc1ccc(C)c(N2N=C(C(=O)Nc3ccccc3N3CCCC3)CCC2=O)c1
    -37%	21	.	-5%	-4.9%	-16%[15.4 µM]	-9
32) CN(CCNC(=O)CCNC(=O)Cn1ccc2ccccc2c1=O)Cc1ccccc1
    3%	-7	4.0	15%	-25%	-13%	0
33) CC(=O)N=c1ncn(CC(COC(C)=O)OC(C)=O)c2nc[nH]c12 (stereo not given)
    7%	7	-0.4	12%	0.6%	-51%	6
34) CC(NC(=O)Nc1ccccc1Cl)c1ccc2c(c1)OCO2 (stereo not given)
    -3%	-3	1.3	-1%	1.4%	2%	-18
35) Cc1ccc(SCCC(=O)OCC(=O)Nc2ccc(S(N)(=O)=O)cc2)cc1
    11%	-4	2.8	11%	-0.1%	-26%	-12
36) COc1ccc(/C=C/C(=O)N[C@H](C(=O)O)C(C)C)cc1
    2%	-10	-1.2	5%	1.7%	1%[15.4 µM]	2
37) C[n+]1cccc(/C=N/Nc2nc(Cl)c(C#N)c(Cl)c2Cl)c1
    -11%	-10	?	12%	.	5%	0
38) CC(C)(C)OC(=O)N1CCC[C@H]1C(=O)Nc1ccc(Br)cc1
    5%	-1	-1.7	10%	1.9%	-9%	-9
39) Cc1cc2ccccc2n1CCNC(=O)c1cccs1
    -5%	30	?	-15%	-0.2%	4%	9
40) O=C(Nc1ccccc1F)c1ccc(Br)o1
    5%	-2	1.0[94.6 µM]	9%&11%	-1.4%	.	6
41) CCCCN1C(=O)NC(NS(=O)(=O)c2ccc(N)cc2)(C(F)(F)F)C1=O (stereo not given)
    4%	1	2.0	22%	0.4%	-27%	3
42) CC1CCN(S(=O)(=O)c2cccc(C(=O)Oc3ccc([N+](=O)[O-])cc3)c2)CC1
    15%	-10	-1.5	-6%	-4.6%	5%	-7
43) Cc1ccc(NC(=O)COC(=O)Cn2c(C)csc2=O)c([N+](=O)[O-])c1
    -9%	13	.	.	2.2%	0%[15.4 µM]	-11
44) Cc1cc(Cl)ccc1OCC(=O)NCCCN1CCOCC1
    18%	1	4.0	6%	-0.1%	5%	-9
45) CC(=O)N1CCN(C(=O)c2ccc(Oc3ccccc3)cc2)CC1
    -11%	20	1.4	9%	.	-6%[15.4 µM]	-12

An excerpt from above, showing only Sfp PPTase inh and TRPV1 potentiator.
#	Molecule	Sfp PPTase inh	TRPV1 potentiator
34	CC(NC(=O)Nc1ccccc1Cl)c1ccc2c(c1)OCO2 (stereo not given)	-1%	-18
35	Cc1ccc(SCCC(=O)OCC(=O)Nc2ccc(S(N)(=O)=O)cc2)cc1	11%	-12

The list continues:
Screens in order – gsp antag	TRPML1 blocker	Menin MLL FP FL	Sfp PPTase inh	ClpP mod	gsp agonist	TRPV1 potentiator
46) Cc1cc(N/N=C/c2ccc(O)cc2O)c2ccccc2n1
    3%	.	0.9	18%	3.5%	-2%	-4
47) NC(=O)NNC1=Nc2cccc3cccc1c23
    -8%	-5	2.1	4%	?	3%[15.4 µM]	-3
48) O=C(NCC(c1ccco1)N1CCCC1)c1sc2cc(F)ccc2c1Cl (stereo not given)
    -8%	2	.	.	.	0%	.
49) C=CCc1cccc2cc(C(=O)O)c(=O)oc12
    -3%	-17	-1.0	13%	-19%	14%	-1
50) Cc1c(/C=N/O)sc2ccccc12
    5%	-18	0.5	14%	.	-7%[15.4 µM]	4
51) Cc1cccc(NC(=O)CC2c3ccccc3Oc3ccccc32)c1
    9%	17	1.2	17%	.	?	-13
52) CCOC(=O)N1CCN(C(=O)CSCC(=O)Nc2nc(-c3cccs3)cs2)CC1
    ?	4	2.3	12%	-1.8%	-13%	?
53) O=C(O)CSc1nc(C(F)(F)F)cc(=O)n1-c1ccccc1
    6%	-4	4.5	16%	0.0%	-20%	24
54) Cc1nn(Cc2nnc(SCC(=O)Nc3cccc(C(F)(F)F)c3)n2C)c(C)c1[N+](=O)[O-]
    -30%	27	1.9	4%	-1.0%	15%[15.4 µM]	19
55) CCCN(Cc1ccc(N(CC)CC)cc1)CC1CC1
    2%	9	1.3	9%	-0.3%	-45%[inhibitor]	11
56) COCCn1c(SC(C)C(=O)Nc2ccc(Cl)cn2)nnc1-c1ccncc1 (stereo not given)
    12%	6	4.6	13%	.	0%[15.4 µM]	4
57) CC(C)Cc1nc(C(N)=O)c2[nH]c(=O)n(-c3ccc(F)cc3)c2n1
    13%	6	2.7	8%	5.5%	-12%	-11
58) COc1ccc(CCNC(=O)CSc2nc3ccccc3o2)cc1OC
    5%	-1	0.5	0%	1.4%	0%	8
59) CCC(C)NS(=O)(=O)c1ccc(S(=O)(=O)N2CCCC3(CCCCC3)C2)cc1 (stereo not given)
    -16%	-11	11	14%	-2.4%	-13%	6
60) CC1CCC(NC(=O)COC(=O)C2=NN(c3ccccc3)C(=O)CC2)CC1 (stereo not given)
    4%	-3	.	.	0.0%	-48%[inhibitor]	-1
61) CCc1ccccc1NC(=O)CN1CCC(NC(=O)COC)CC1
    5%	-5	1.1	15%	0.3%	0%	2
